Mtb hypoxia inh = reduces hypoxia-regulated biosensor signal in M. tuberculosis | M. tuberculosis hypoxia-regulated fluorescent reporter, fluorescence | fluorescence inhibition, % (no concentration beside the values) | hit rate 0.1% among 300,000;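 active means 35 to 45% if threefold the growth effect, above 45% if 1.5-fold the growth effect; inactive means the rest, general growth blockers included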;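 further: wells of about 50 µL received 100 nL stock; 0% = vehicle wells and 100% = reference inhibitor wells; whole bacteria with a GFP reporter of the hypoxia response; strong numbers were not always called active; many hits fall short of the cut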
Autofluor counter = flagged as autofluorescent in microsphere protease counterscreen | hit rate 3.1% among 360,000 | fluorescence intensity (concentration not given with the values) | compound autofluorescence counterscreen, microsphere flow cytometry; hits give high values;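 active means at least 3 SD above the mean of all compounds, about 16000 in these data; inconclusive means too few beads counted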;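 further: 100 nL of 1 mM stock went into each well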
PrP 5UTR inh = suppresses PrP 5' UTR mRNA reporter expression | cell-based PrP 5' UTR mRNA reporter, plate reader | inhibition, % (concentration not given with the values) | hit rate 0.35% among 340,000;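 active means every replicate at 50% or more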;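 further: 0 = median of the neutral control wells; tested in H4 reporter cells; numbers are from one replicate; inactives centre near -14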
Sa ugtP lethal = compounds lethal to S. aureus RN4220 ugtP deletion mutant | OD600 growth, 16 h; some inactives read as strong as hits | growth inhibition, % (concentration not given with the values) | hit rate 0.54% among 330,000 | AID 1259309;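 active means z-score under -3 and OD600 up to 0.15 on both plates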;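 further: plate controls were untreated wells for no effect and antibiotic for full effect; wells of about 80 µL received 100 nL stock; the first replicate is given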
Sa RN4220 lethal = S. aureus RN4220 growth inhibition | OD600, 16 h | AID 1259311 | hit rate 0.33% among 330,000 | inhibition, % (test concentration not listed);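 active means z-score of -3 or lower and OD600 up to 0.18 on both plates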;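 further: plate controls were untreated cells for no effect and reference antibiotic for full effect; stock transfer was 100 nL into about 80 µL; one replicate is shown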
BJeLR viability = BJeLR cell viability loss | BJeLR (HRASV12) viability, CellTiter-Glo ATP luminescence, 48 h; reference of the scale not given here | inhibition, % (test concentration not listed) | hit rate 0.17% among 300,000;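 active means replicate mean above 50%; inconclusive means above 50% but judged a plate artefact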;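 further: 50 nL library stock added to about 25 µL; numbers are from one replicate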
Mtb hypoxia inh growth = second read-out of Mtb hypoxia inh, no call of its own (marks repeat the call); growth inhibition, %; measured here: M. tuberculosis growth (absorbance);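 0% = vehicle and 100% = reference antibiotic; read after six days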
An asterisk follows results filed as active; ? = inconclusive; / = not tested or not shown.

SMILES | Mtb hypoxia inh | Mtb hypoxia inh growth | Autofluor counter | PrP 5UTR inh | Sa ugtP lethal | Sa RN4220 lethal | BJeLR viability
Cc1cc(Cl)ccc1NNC(=O)c1c(C)noc1C | -3.1 | -4.5 | 3972 | -19.7 | 3.2 | -0.6 | 0.4
COc1cc(C=CC(=O)OCC(=O)Nc2ccccc2Cl)cc(OC)c1OC | 3.0 | 1.7 | / | / | 0.5 | 6.2 | /
CCCCCCCC(=O)NNC(=O)Cc1ccccc1 | 2.7 | 3.6 | 9957 | -19.1 | -1.9 | 0.7 | -3.4
O=C(NNC(=O)c1cc(-c2ccncc2)nc2ccccc12)c1ccccc1O | 15.5 | -2.5 | 5729 | -40.3 | -8.9 | 30.0 | -4.5
COc1ccccc1N1CCN(CC(=O)c2c(C)n(C)c3ccccc23)CC1 | 9.9 | 13.9 | 3380 | 3.5 | 4.7 | 12.1 | -5.3
O=C(NCCc1csc(-c2cccnc2)n1)c1c(F)cccc1F | 10.3 | -0.7 | 6335 | -14.3 | -0.8 | 0.5 | -15.1
COc1ccc(OC)c(NC(=O)CN(c2ccc(OC)c(Cl)c2)S(C)(=O)=O)c1 | 3.7 | 12.6 | 6013 | 7.1 | -2.3 | 1.0 | -6.4
Cc1noc(NS(=O)(=O)c2ccc(NC(=O)C34CC5CC(C3)CC(n3cnc(Cl)n3)(C5)C4)cc2)c1C | 13.8 | 20.5 | 2049 | -9.2 | 4.8 | 5.5 | 1.8
O=C(CSc1nccn1-c1ncc(C(F)(F)F)cc1Cl)c1ccc(Cl)cc1 | / | / | ? | -81.2 | / | / | -1.7
Cc1cc2cc3c(cc2nc1SCC(=O)N1c2ccccc2CC1C)OCO3 (stereo not given) | / | / | 5028 | -23.4 | 5.7 | -0.9 | 5.5
O=C(NN=Cc1ccccn1)c1cccc(NC(=O)c2ccc(Cl)cc2)c1 | 0.1 | 2.6 | / | / | -1.8 | -3.6 | /
COc1ccc(O/C(=N\S(=O)(=O)c2ccccc2)c2ccccc2)cc1 | / | / | 7953 | -6.8 | / | / | 7.2
CCOc1ccccc1NC(=O)c1ccc(F)c(S(=O)(=O)N2CCC3(CC2)OCCO3)c1 | 6.3 | 4.6 | 17156* | 2.5 | 1.6 | -2.2 | 3.0
CC(c1ccc(F)cc1)n1cc(C(=O)NCc2ccccn2)nn1 (stereo not given) | 7.3 | 7.4 | 3289 | -12.8 | 1.6 | 3.3 | 9.6
CN(C)c1nc(Cl)nc2c1nc(Cl)n2C1CCCCO1 (stereo not given) | 10.8 | 11.2 | 3494 | -23.1 | 5.4 | 6.2 | /
COC(=O)c1ccc(OCC(O)CNCC(c2ccc(OC)cc2)N(C)C)c(OC)c1 (stereo not given) | 14.4 | 1.6 | 5828 | -26.1 | 0.2 | 0.7 | -5.9
O=C(c1cn(-c2ccccc2)nc1-c1cc2ccccc2oc1=O)N1CCOCC1 | 11.4 | 7.2 | 4765 | -3.1 | -1.3 | 7.9 | -2.6
COCc1cc(C)nc(OC)c1C(N)=O | 3.7 | 8.0 | 3475 | 4.2 | 6.6 | 8.2 | 0.7
CCCc1cc(=O)n2[nH]c(Cc3ccccc3)nc2n1 | / | / | 4218 | -8.2 | 14.3 | 2.9 | -7.2
COc1ccc(N(CC(=O)Nc2ccc3c(c2)OCCO3)S(=O)(=O)c2c(C)noc2C)cc1 | 4.0 | 6.0 | 9486 | -22.5 | 17.7 | 1.8 | 0.5

Only PrP 5UTR inh, for some of the entries so far:
Structure,PrP 5UTR inh
O=C(NNC(=O)c1cc(-c2ccncc2)nc2ccccc12)c1ccccc1O,-40.3
COc1ccccc1N1CCN(CC(=O)c2c(C)n(C)c3ccccc23)CC1,3.5
O=C(NCCc1csc(-c2cccnc2)n1)c1c(F)cccc1F,-14.3
COc1ccc(OC)c(NC(=O)CN(c2ccc(OC)c(Cl)c2)S(C)(=O)=O)c1,7.1
Cc1noc(NS(=O)(=O)c2ccc(NC(=O)C34CC5CC(C3)CC(n3cnc(Cl)n3)(C5)C4)cc2)c1C,-9.2

(continued)
SMILES | Mtb hypoxia inh | Mtb hypoxia inh growth | Autofluor counter | PrP 5UTR inh | Sa ugtP lethal | Sa RN4220 lethal | BJeLR viability
CCN(C(=O)CN1CCN(c2ccc(O)cc2)CC1)c1c(N)n(Cc2ccccc2)c(=O)[nH]c1=O | -1.3 | 6.9 | 3098 | 5.3 | -3.9 | 1.5 | -3.2
CN(C(=O)c1cccc(NC(=O)Cc2ccc([N+](=O)[O-])cc2)c1)C1CCCC1 | 11.0 | 9.4 | 4388 | -15.7 | -1.2 | 2.6 | /
COc1cc([N+](=O)[O-])ccc1NC(=O)COC(=O)C=C(C)C | 3.8 | 1.5 | 3137 | 61.1* | 7.2 | 16.7 | 5.2
S=C(NCC1CC1)NN=Cc1ccccc1Cl | 2.8 | 1.0 | / | / | 10.9 | 3.2 | /
CC1SC(=NN=Cc2cccc([N+](=O)[O-])c2)N(C(C)(C)C)C1=O (stereo not given) | 9.0 | 0.0 | / | / | 79.3 | -1.3 | /
COC(=O)C(Cc1ccccc1)NC(=O)C12CC3CC(CC(C3)C1)C2 (stereo not given) | 8.2 | 8.4 | 2014 | 8.5 | -1.0 | 5.2 | -1.1
CSCCC(NS(=O)(=O)c1ccc2c(c1)OCCO2)C(=O)NCCc1ccccn1 (stereo not given) | / | / | 4283 | -26.2 | 8.9 | 1.1 | -5.3
Cn1c(=O)n(C)c2cc([N+](=O)[O-])c(N3CCN(C(=O)c4ccc(F)cc4)CC3)cc21 | 15.5 | 3.4 | 4911 | -17.9 | 5.9 | 2.0 | 2.3
Cc1ccc(-n2c(=O)c3c4c(sc3n3c(C)nnc23)COC(C(C)C)C4)cc1 (stereo not given) | 4.6 | 8.5 | 3111 | 0.8 | 1.2 | 7.3 | -2.9
Cc1cccc(C)c1N1CCN(C(=O)N2CCOCC2)CC1 | 16.8 | 6.6 | 3726 | -2.3 | 4.0 | 0.5 | /
N#C/C(=C(/O)CCl)c1nnc2n1CCCCC2 | / | / | 3276 | -10.5 | 6.1 | 7.9 | 5.9
Cc1ccc(C)c(NC(=O)CCC(=O)N/N=C/c2cc([N+](=O)[O-])ccc2O)c1 | / | / | 3483 | -1.9 | / | / | 5.0
O=C(NCCCN1CCOCC1)c1cc(S(=O)(=O)N2CCOCC2)c(Cl)cc1Cl | -3.2 | -10.0 | 3922 | -5.8 | 3.6 | 1.4 | /
CCOc1cc(Br)ccc1S(=O)(=O)N1CCC(C(N)=O)CC1 | 2.1 | -0.8 | 2587 | -27.0 | 5.1 | 3.3 | -2.0
O=C(/C=N/O)NCCCn1ccnc1 | / | / | 3503 | -10.6 | / | / | -2.6
C=CCn1c(SCN2C(=O)c3ccccc3C2=O)nc2ccc(Cl)cc2c1=O | 13.3 | -0.4 | 7533 | -8.9 | 1.1 | -2.0 | -1.6
Cc1ccc(-c2nnc(SCC(=O)NN=Cc3ccccc3C(=O)O)n2-c2ccc(Cl)cc2)cc1 | -5.4 | -2.6 | / | / | 2.4 | 8.5 | /
Cc1ccc(-c2nc(NCCN3CCOCC3)c3ccccc3n2)cc1 | 5.3 | 12.0 | 10743 | -44.0 | -7.8 | 3.3 | 0.7
Cc1cc(C(F)(F)F)n(-c2nc(C(=O)N/N=C/c3ccc(F)cc3)cs2)n1 | / | / | 5969 | -15.2 | / | / | -2.2
O=[N+]([O-])C(C1CCS(=O)(=O)C1)C1CCS(=O)(=O)C1 (stereo not given) | 10.5 | 7.7 | 4475 | -11.2 | 0.9 | 7.0 | -5.8

Single records, from the list above. Values in the order: Mtb hypoxia inh	Mtb hypoxia inh growth	Autofluor counter	PrP 5UTR inh	Sa ugtP lethal	Sa RN4220 lethal	BJeLR viability
CC1SC(=NN=Cc2cccc([N+](=O)[O-])c2)N(C(C)(C)C)C1=O (stereo not given) reads 9.0	0.0	/	/	79.3	-1.3	/
CN(C(=O)c1cccc(NC(=O)Cc2ccc([N+](=O)[O-])cc2)c1)C1CCCC1 reads 11.0	9.4	4388	-15.7	-1.2	2.6	/

(more compounds)
SMILES | Mtb hypoxia inh | Mtb hypoxia inh growth | Autofluor counter | PrP 5UTR inh | Sa ugtP lethal | Sa RN4220 lethal | BJeLR viability
COc1ccc(S(=O)(=O)N(C)c2ccc(C(N)=O)cc2)cc1 | 8.3 | 8.7 | 9796 | -20.0 | 4.5 | 5.6 | 5.5
N#Cc1c(-c2ccc(F)cc2)cc(-c2cccnc2)nc1N | / | / | 10777 | 2.2 | / | / | -8.3
CC1CCCC(NC(=O)CSC2=Nc3ccccc3C3CC=NN23)C1C (stereo not given) | 2.6 | 5.3 | ? | 7.1 | -5.9 | 8.3 | /
O=C(NCCCN1CCCC1=O)c1cccc(S(=O)(=O)Nc2ccc(Br)cc2)c1 | -5.8 | -1.5 | ? | -4.5 | -10.8 | -5.0 | 0.8
O=C(O)CN1C(=O)/C(=C/c2cccc(Cl)c2)Oc2ccccc21 | 5.1 | -4.4 | 4006 | -13.5 | 3.2 | 11.4 | 0.2
O=C(COC(=O)c1ccc(F)cc1)Nc1ccc2c(c1)OCO2 | 5.3 | -4.9 | 3071 | -25.6 | 0.1 | 1.4 | /
CC(=O)Nc1ccc(C(=O)N/N=C/c2ccccc2OC(=O)c2ccc(Cl)cc2)cc1 | / | / | 3445 | -25.8 | / | / | -7.7
CC1CCN(c2oc(-c3ccco3)nc2S(=O)(=O)c2ccccc2)CC1 | / | / | 6831 | -15.4 | / | / | -9.2
COc1ccccc1N1CCN(Cc2cnc3ccc(Cl)cn23)CC1 | 8.1 | 3.1 | 3674 | -16.9 | 6.8 | 2.6 | 15.8
CCOC(=O)N1CCN(C(=O)CSc2nc3c([nH]c4ccccc43)c(=O)n2C)CC1 | 4.9 | 4.7 | 5097 | -29.4 | 9.4 | 7.2 | 2.1
CCCCn1c(N)c(N(CC(C)C)C(=O)c2cccs2)c(=O)[nH]c1=O | -0.5 | 6.4 | 6265 | -10.3 | 9.4 | 1.2 | -25.7
CCC(C)Nc1nnnc2c1sc1nc3c(cc12)COC(C)(C)C3 (stereo not given) | -0.1 | 14.5 | 4296 | -7.0 | 0.0 | 1.7 | -6.6
Cc1ccc(-c2noc(CN(C(=O)c3ccc4c(c3)OCO4)C(C)C)n2)cc1 | -4.3 | -5.3 | 4491 | 0.7 | 15.0 | 8.1 | -5.8
COc1ccc(OC(C)C(=O)N(C)Cc2nc(-c3ccccc3)no2)cc1 (stereo not given) | 7.6 | 2.4 | 3506 | -6.2 | -1.8 | 6.1 | -13.9
COc1cc(C(=O)N/N=C/c2sccc2C)cc(OC)c1OC | / | / | 3716 | 36.5 | / | / | 36.1
Cc1cccn2c(=O)c(C=O)c(Nc3ccc(S(N)(=O)=O)cc3)nc12 | 11.8 | 12.1 | 3110 | / | 11.9 | 2.8 | 2.2
CCN(CC)CCCNC(=O)c1cn(-c2cccc(OC)c2)c(=O)c2ccccc12 | 15.1 | 2.7 | 3865 | -16.7 | 6.2 | 1.8 | -5.6
Cc1ccc(CSc2nnc(SCC(=O)N/N=C/c3ccc(C(=O)O)cc3)s2)cc1 | / | / | 5666 | -4.4 | / | / | -0.8
CCOC(=O)C1C2COc3ccc(Br)cc3C2N2C(=O)N(c3ccc(Br)cc3)C(=O)[C@]12C (stereo not given in full) | -1.1 | 11.6 | / | / | -9.4 | 0.1 | /
O=C(OCC(=O)N1CCOCC1)c1ccc2[nH]c3c(c2c1)CCCC3 | 0.0 | 5.2 | 3255 | -16.1 | 1.1 | 1.5 | -11.5
Cc1cccc(NC(=O)CSc2nnnn2-c2ccc3c(c2)OCCO3)n1 | 10.3 | -3.6 | 2463 | -4.1 | 1.1 | 3.2 | 2.3
O=C(CC(=O)Nc1ccccc1C(F)(F)F)Nc1ccccc1C(F)(F)F | -6.6 | 5.6 | 3683 | 2.5 | -2.1 | -3.1 | 14.8
O=C(c1cccc(C(F)(F)F)c1)C1CCCN(Cc2cccn2-c2ncccn2)C1 (stereo not given) | 5.1 | 8.3 | 2622 | -15.6 | 2.5 | 2.0 | -2.6
CCOc1ccccc1NC(=O)c1nc(-c2ccccc2)oc1C | 3.4 | 14.3 | 4543 | -11.5 | 1.7 | 2.8 | 4.1
Cc1nn(C)c(C(=O)N2CCOCC2)c1Cl | 4.7 | 5.8 | 2164 | -8.8 | -1.4 | 3.9 | -2.6
Cc1nn(C(=O)N2CCCCC2)c(C)c1CN1C(=O)c2ccccc2C1=O | 5.1 | 9.3 | 9827 | -24.4 | 6.8 | 3.2 | -13.3
CCOC(=O)N1CCN(C(=O)CCSc2ccccc2)CC1 | 4.6 | 6.1 | 4211 | -70.0 | 9.4 | 5.1 | 1.7
CCC(C)N1C(=O)CCC1C(=O)O (stereo not given) | -5.8 | -7.6 | 5948 | 8.2 | -1.5 | 1.9 | 0.1

High-throughput results from PubChem BioAssay.
